# INS promoter inh = TRM-6 insulin promoter activity inhibition. inhibition, % at 2 µM. 0.9% of 130,000 active. TRM-6 cells (human fetal islet line), insulin promoter-eGFP reporter, imaging; reporter expression induced with tamoxifen. AID 1273;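 active means inhibition above the mean plus 3 SD, with well images judged a real hit on visual review, cut at about 60% in these data, passing the limit was not always enough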
# HSV replic up = increases HSV replication in cells. HSV replication augmentation in cells, fold increase. 0.005% of 220,000 active. maximum fold increase;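 active means peak rise of 1.5-fold or more in the series; tested in PC3 cells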;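 further: first round at 10 µM; read as green reporter fluorescence; hits show the peak of a series up to 25 µM; 1 = signal of infected wells without compound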
# PKD1 kinase inh = blocks activity of human protein kinase D1; Q15139; PKD1 kinase fluorescence polarization assay; inhibition, %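 (about 10 µM by stock and volumes)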; 0.056% of 200,000 active;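 active means inhibition of 50% or more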;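 further: controls were vehicle for no effect and a reference inhibitor for full effect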
# Target sequence (Q15139 whole entry, looked up): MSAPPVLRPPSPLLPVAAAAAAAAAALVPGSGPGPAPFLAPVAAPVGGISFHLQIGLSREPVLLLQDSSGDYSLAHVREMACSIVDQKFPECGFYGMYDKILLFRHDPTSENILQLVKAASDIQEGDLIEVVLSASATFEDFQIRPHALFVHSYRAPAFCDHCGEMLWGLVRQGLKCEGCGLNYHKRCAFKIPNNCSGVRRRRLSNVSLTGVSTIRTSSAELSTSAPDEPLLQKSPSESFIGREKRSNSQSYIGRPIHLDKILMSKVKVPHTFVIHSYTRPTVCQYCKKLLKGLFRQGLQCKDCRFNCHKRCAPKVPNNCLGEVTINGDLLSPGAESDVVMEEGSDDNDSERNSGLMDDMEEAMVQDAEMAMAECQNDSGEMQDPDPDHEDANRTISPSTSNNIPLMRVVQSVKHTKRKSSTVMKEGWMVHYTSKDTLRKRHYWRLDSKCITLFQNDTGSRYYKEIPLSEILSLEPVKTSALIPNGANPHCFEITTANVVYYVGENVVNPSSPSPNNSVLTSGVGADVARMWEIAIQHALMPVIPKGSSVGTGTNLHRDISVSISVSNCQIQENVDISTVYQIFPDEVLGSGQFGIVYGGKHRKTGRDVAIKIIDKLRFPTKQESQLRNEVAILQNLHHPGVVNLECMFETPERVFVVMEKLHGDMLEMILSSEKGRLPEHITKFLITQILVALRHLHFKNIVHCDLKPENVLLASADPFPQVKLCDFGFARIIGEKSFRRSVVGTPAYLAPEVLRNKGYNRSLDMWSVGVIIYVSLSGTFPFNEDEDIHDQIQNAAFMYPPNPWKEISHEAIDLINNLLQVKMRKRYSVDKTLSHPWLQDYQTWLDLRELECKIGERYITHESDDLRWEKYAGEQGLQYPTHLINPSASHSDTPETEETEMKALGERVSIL
# RGS16-Gao HTS = modulates binding between human RGS16 and Galphao; O15492+P09471; bead-based flow cytometry RGS16-Galphao binding, fluorescence; actives lie on both sides; binding response (% of control), % at 10 µM; 0.38% of 220,000 active;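 active means below 25% or above 175%, edge rows of some plates excepted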;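 further: Galphao activated by GDP with aluminum fluoride before binding; 100% = wells without compound and 0% = beads without RGS; some results beyond the cut were filed as inactive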
# GALR2 agonist = GALR2 (human) receptor agonism | 0.48% of 140,000 active | activation, %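 (tested at 5 µM)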 | GALR2-expressing cells, agonist activation read-out | O43603;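 active means above mean plus 3 SD of all compounds, about 5% in these data, not always enough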;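 further: 0% = vehicle buffer wells and 100% = reference agonist at full effect; tested in CHO reporter cells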
# INS promoter inh cell count = also measured in INS promoter inh; calls as there; normalized cell count, %; measured here: cell count, toxicity; reference of the scale not given here;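 cells exposed to compound for 48 h; stained nuclei by imaging scaled within each plate; lower means fewer cells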
# HSV replic up primary fold = also measured in HSV replic up; calls as there; fold increase; compound at 10 µM; measured here: primary screen fold increase 10 uM; tested in PC3 cells;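 GFP signal in the first replicate; 1 = infected wells without compound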
# The depositor's hits bear a star; i = inactive; . = not tested or not shown. Rows are unselected; any-hit rate near 1.3%.
# Results follow in this order: INS promoter inh, INS promoter inh cell count, HSV replic up, HSV replic up primary fold, PKD1 kinase inh, RGS16-Gao HTS, GALR2 agonist
- NC1=NC(=O)/C(=C\C=C\c2ccccc2)S1
 : 30, 77, i, 1, 9, 101, -0.7
- CCOP(=O)(OCC)C(NC(=O)c1cc([N+](=O)[O-])cc([N+](=O)[O-])c1)C(F)(F)F (centres undefined)
 : 43, 99, i, 1, -5, 102, .
- Cc1ccc(C)c(NC(=O)C(Sc2nc3ccc(C)cc3[nH]2)c2ccccc2)c1 (centres undefined)
 : -29, 77, i, 0.96, 5, 67, 0.0
- Cc1ccc(S(=O)c2ccc(NC(=O)C3CC3)cc2C#N)cc1 (centres undefined)
 : 27, 33, i, 0.92, 1, 127, .
- CCN1CCN(c2cc(C)c3cc(NC(=O)Cc4ccc(OC)c(OC)c4)ccc3n2)CC1
 : ., ., i, 0.73, 2, 156, -0.3
- O=C(C1CCC1)N1CCc2cc(S(=O)(=O)NCc3cccnc3)ccc21
 : -25, 59, i, 1, -10, 97, -4.6
- CCCc1nn(C)c2c(=O)[nH]c(-c3cc(S(=O)(=O)Nc4ccc(NC(C)=O)cc4)ccc3OCC)nc12
 : ., ., i, 0.8, ., 102, .
- CC1=NNC(=O)C1CC(=O)N/N=C/c1ccc(C)o1 (centres undefined)
 : ., ., i, 0.96, ., 102, .
- CC(=O)NC1(c2ccccc2)CCN(c2nc(C)cc(C)n2)CC1
 : -9, 121, i, 1, -11, 93, -2.2
- O=S(=O)(c1cccc2nsnc12)N1CCN(c2ccc(F)cc2)CC1
 : -62, 94, i, 0.8, -9, 104, .
- Cc1nc2ccccc2nc(C)c1=NOCc1ccccc1Cl
 : 11, 130, i, 1.1, -16, 103, -0.6
- O=C1C=CC(=O)N1CCCCCCN1C(=O)C=CC1=O
 : ., ., i, 0.7, -3, 53, -3.0
- O=C(Nc1ccccc1C(=O)N1CCCCCC1)c1cccc(S(=O)(=O)N2CCOCC2)c1
 : -325, 124, i, 1, -3, 110, -1.6
- COCCN1Cc2cccc(C(=O)NCc3cccs3)c2C1=O
 : ., ., i, 1, 2, 83, .
- Cc1cc(N/C=C(\C#N)S(=O)(=O)c2ccc(Cl)cc2)nc(C)n1
 : ., ., i, 0.97, ., 91, .
- CCCCCOC(=O)c1[nH]c2c(c1C)C(=O)C(C(=O)OC)C(C)C2 (centres undefined)
 : -375, 87, i, 0.87, -8, 105, -2.9
- CC(=O)c1ccc(N2CCN(CC(=O)Nc3ccc(N4CCOCC4)cc3)CC2)cc1
 : 22, 110, i, 0.95, -2, 87, .
- CCN(CC)CCC(c1ccc2c(c1)OCO2)c1c(O)cc(OC)cc1OC (centres undefined)
 : ., ., i, 1, ., 100, .
- CC(=O)Cc1nsc(NC(=O)c2ccccc2)n1
 : ., ., i, 1, 5, 60, -0.4
- CCN1CCN(Cc2oc(CO)cc(=O)c2O)CC1
 : ., ., i, 0.82, -8, 98, -2.4
- COc1ccc(C2NC(=S)N3C(c4ccc(OC)cc4)NC(=S)N23)cc1 (centres undefined)
 : 1, 120, i, 0.92, 6, 107, -2.1
- CCOC(=O)c1ccccc1NC(=O)c1c(F)c(F)c(F)c(F)c1F
 : 24, 33, i, 0.85, -10, 96, 0.4
- Cc1cc(C)nc(NNC(=O)c2ccccc2O)n1
 : 44, 162, i, 0.88, -6, 104, .
- CC1CCCN(c2nc3ccccc3nc2C(C#N)S(=O)(=O)c2cccs2)C1 (centres undefined)
 : 24, 68, i, 1, -2, 109, -0.9
- CC1(C)N(OCc2ccccc2)C(=O)C(=O)N(OCc2ccccc2)C1(C)C
 : -38, 124, i, 0.7, 1, 112, -0.7
- COc1ccc(-c2cc(C)nc(SCC(=O)c3cccc([N+](=O)[O-])c3)n2)cc1
 : -19, 74, i, 0.81, -3, 102, 3.4
- O=C(Cn1cnc([N+](=O)[O-])n1)NCCO
 : ., ., ., ., -8, 98, .
- CCOC(=O)CCc1c(C)nc2cc(-c3ccc(Cl)cc3)[nH]n2c1=O
 : -3, 118, i, 0.87, 5, 99, -1.9
- Cc1ccc(S(=O)(=O)N2CCN(C)CC2)cc1-c1nnc2c3ccccc3c(C)nn12
 : -36, 118, i, 0.88, -5, 102, 0.6
- COc1ccc(NC(=O)c2cccnc2Cl)c(S(=O)(=O)N2CCOCC2)c1
 : -14, 116, i, 0.96, 6, 101, -0.9
- COc1ccc(Nc2nc(OC)nc(N3CCOCC3)n2)cc1
 : ., ., i, 0.91, -4, 107, .
- C=CCNC(=O)c1ccc(OC2CCN(S(=O)(=O)N(C)C)CC2)cc1
 : ., ., i, 1, 4, 121, .
- CCCSc1cc(=O)n(-c2ccc(F)cc2)nc1C(=O)OCC
 : -15, 111, i, 0.98, 1, 99, .
- NS(=O)(=O)c1ccc(NC(=O)COC(=O)c2cccc(S(=O)(=O)N3CCCC3)c2)cc1
 : ., ., i, 1.1, ., 104, .
- COc1cccc(CC(NC(C)=O)C(=O)NC2CCN(c3ncccc3[N+](=O)[O-])CC2)c1 (centres undefined)
 : 18, 176, i, 1, -3, 114, .
- COC(=O)C1=CO[C@@H](OC2OC(CO)C(O)C(O)C2O)[C@@H]2C(CO)=CC[C@H]12 (some centres undefined)
 : 5, 86, i, 0.98, -2, 105, -1.2
- O=C(CC1Oc2ccc(Cl)cc2NC1=O)NC1CCCCCC1 (centres undefined)
 : ., ., i, 1.1, -2, 103, -2.0
- Cc1nnc(NC(=O)CCn2cnc3ccccc3c2=O)s1
 : ., ., i, 0.89, 0, 93, .
- COc1ccc(/C=N/OC(=O)c2ccc(Cl)cc2)c(Cl)c1OC
 : ., ., i, 0.96, ., 98, .
- COc1ccc(N2C(=O)CCC(C(=O)NCc3cccnc3)C2c2ccc(OC)c(OC)c2)cc1 (centres undefined)
 : 16, 75, i, 0.88, -2, 112, -3.0
- Cc1nnc(SCCOc2ccccc2)s1
 : ., ., i, 0.94, -14, 99, .
- CCCc1nnc(SCc2ccc(OCC)cc2)n1N
 : 3, 122, ., ., -11, 98, 0.1
- COC(CNC(=O)c1ccc(N2CCCC2=O)cc1)OC
 : -427, 111, i, 0.94, 1, 101, -1.6
- CC1=CC(C/C(C)=C/COc2ccc3ccc(=O)oc3c2)OC1=O (centres undefined)
 : ., ., i, 0.72, ., 97, .
- COC(=O)CSc1nnc(CNc2ccc(Cl)cc2)n1Cc1ccccc1
 : 18, 48, i, 0.76, 2, 107, -1.6
- Cc1ccc(C(=O)Nc2cnc3ccccn3c2=O)cc1
 : -15, 94, i, 0.77, -1, 100, -2.3
- CCOC(=O)c1sc(/N=C/c2c(O)ccc3ccccc23)cc1C
 : -24, 96, i, 0.97, 0, 101, -0.3
- CN(C)CCCNS(=O)(=O)c1cc(Cl)c(Cl)cc1Cl
 : ., ., i, 1.1, ., 99, .
- CCOc1ccc(CCNC(=O)Cn2c(=O)oc3ccccc32)cc1OCC
 : -20, 140, i, 0.89, 2, 102, -3.0
- CN(C)CCCSc1nc2ccccc2s1
 : -25, 85, i, 0.97, 5, 103, .

# Five entries picked at random from those above, as already listed:
# Results follow in this order: INS promoter inh, INS promoter inh cell count, HSV replic up, HSV replic up primary fold, PKD1 kinase inh, RGS16-Gao HTS, GALR2 agonist
- CCOC(=O)c1sc(/N=C/c2c(O)ccc3ccccc23)cc1C
 : -24, 96, i, 0.97, 0, 101, -0.3
- CN(C)CCCNS(=O)(=O)c1cc(Cl)c(Cl)cc1Cl
 : ., ., i, 1.1, ., 99, .
- CN(C)CCCSc1nc2ccccc2s1
 : -25, 85, i, 0.97, 5, 103, .
- COC(=O)CSc1nnc(CNc2ccc(Cl)cc2)n1Cc1ccccc1
 : 18, 48, i, 0.76, 2, 107, -1.6
- CC1=CC(C/C(C)=C/COc2ccc3ccc(=O)oc3c2)OC1=O (centres undefined)
 : ., ., i, 0.72, ., 97, .

# Next records
# Results follow in this order: INS promoter inh, INS promoter inh cell count, HSV replic up, HSV replic up primary fold, PKD1 kinase inh, RGS16-Gao HTS, GALR2 agonist
- CC(C)c1ccc(NC(=O)c2cc(S(=O)(=O)NCC3COc4ccccc4O3)ccc2F)cc1 (centres undefined)
 : 21, 101, i, 0.86, 2, 35, -2.0
- Cc1ccc(CN(Cc2ccco2)C(=S)NCC(=O)O)cc1
 : ., ., i, 1.1, 5, 63, -1.4
- OCCN(Cc1ccccc1)Cc1ccccc1O
 : ., ., i, 0.89, 2, 100, .
- Cc1noc(C)c1S(=O)(=O)N(CC(=O)N1CCCCCC1)c1ccc(C(C)C)cc1
 : ., ., i, 0.89, -10, 101, 0.9
- c1ccc(C(c2nnnn2C2CCCCC2)N2CCc3ccccc3C2)nc1 (centres undefined)
 : 21, 67, i, 0.87, 1, 90, -0.8
- CCOc1ccc(C(=O)N[C@H](C(=O)Nc2cccc(S(=O)(=O)N3CCCCC3)c2)C(C)C)cc1
 : -161, 53, i, 0.95, -5, 4.6*, -0.9
- CC(C(=O)NCC1CCCO1)c1ccc([N+](=O)[O-])cc1 (centres undefined)
 : -12, 77, i, 1.2, 1, 102, .
- COC(=O)c1ccccc1S(=O)(=O)N1CCC(C(=O)OCC(=O)NCC(F)(F)F)CC1
 : ., ., i, 0.88, -1, 101, .
- Fc1ccccc1-c1nc2nc3ccccc3nc2n1CC1CCCO1 (centres undefined)
 : ., ., i, 1, ., 95, .
- CSc1ccccc1C(=O)NCCSc1ccccc1
 : 17, 109, i, 1.1, 0, 94, -3.1
- COc1cccc(NC2CC(=O)N(CCc3ccccc3)C2=O)c1 (centres undefined)
 : -30, 51, i, 0.95, 2, 91, -0.7
- COc1ccccc1CNC(=O)CSc1cc(=O)n(C)c2ccccc12
 : ., ., i, 0.98, 1, 99, .
- O=C(c1sccc1-n1cccc1)N1CCCC1
 : ., ., i, 0.89, -9, 109, -0.6
- O=C(C(F)C(F)(F)F)N1CCN(c2ccccc2)CC1 (centres undefined)
 : ., ., i, 0.99, -4, 111, -2.4
- CC1=CC(C)C(CN(CCC[N+](C)(C)C)C(=O)Nc2ccccc2)C(C)C1 (centres undefined)
 : ., ., i, 1.3, ., 103, .
- O=C(CCSCc1ccc(Cl)cc1)NC1CCCC1
 : 19, 113, i, 1, -6, 129, -0.7
- Cc1ccccc1N1CCN(C2=NC(=O)/C(=C\c3cccs3)S2)CC1
 : -7, 141, i, 0.84, -7, 75, -0.7
- CC1CCN(C(=O)CSc2ccc(-c3ccc(F)cc3)nn2)CC1
 : ., ., ., ., 5, 111, -0.1
- Cc1cccc(-n2c(CCn3nc(C)c([N+](=O)[O-])c3C)n[nH]c2=S)c1
 : 3, 104, i, 0.98, 1, 93, -0.9
- CC(=O)C1=C(O)C(=O)N(c2nccs2)C1c1ccc(F)cc1 (centres undefined)
 : 21, 111, i, 0.98, -7, 45, -2.5

# Looked up above.
# `CC1=CC(C)C(CN(CCC[N+](C)(C)C)C(=O)Nc2ccccc2)C(C)C1` (centres undefined) in RGS16-Gao HTS is entered as 103
# `COc1ccccc1CNC(=O)CSc1cc(=O)n(C)c2ccccc12` in RGS16-Gao HTS is entered as 99
# `COc1cccc(NC2CC(=O)N(CCc3ccccc3)C2=O)c1` (centres undefined) in RGS16-Gao HTS is entered as 91
# `O=C(C(F)C(F)(F)F)N1CCN(c2ccccc2)CC1` (centres undefined) in GALR2 agonist is entered as -2.4

# The list goes on.
# Results follow in this order: INS promoter inh, INS promoter inh cell count, HSV replic up, HSV replic up primary fold, PKD1 kinase inh, RGS16-Gao HTS, GALR2 agonist
- CCOC(=O)C1=C(C)NC(C)=C(C(=O)OCC)C1c1ccc(OC)cc1
 : ., ., i, 0.73, -11, 88, 1.0
- O=C(CNCc1ccccn1)N1CCc2ccccc2C1
 : ., ., i, 1.1, ., 101, .
- O=C(CSc1nc2[nH]ncc2c(=O)[nH]1)N1CCCCC1
 : 12, 60, i, 1.1, -3, 115, -1.0
- COc1cccc(-c2nc(=S)c3c(n2Cc2ccco2)CCCC3)c1
 : 26, 102, i, 0.92, 6, 100, 2.3
- c1ccc2c(c1)Nc1nccnc1S2
 : 58, 128, ., ., -4, 101, 0.5
- CC(C(=O)NCC1(c2ccccc2)CCCC1)N1CCOCC1 (centres undefined)
 : ., ., i, 1, -4, 87, -0.1
- O=S(=O)(c1ccc(Cl)c(C(F)(F)F)c1)N1CCN(CC(O)COCC2CCCO2)CC1 (centres undefined)
 : -78, 78, i, 0.9, -8, 101, -1.1
- CCNC(=O)COc1ccc2ccccc2c1
 : -14, 127, i, 0.88, 9, 99, -2.4
- CCOC(=O)c1cccc(NC(=O)C2CCC(CNc3c(N4CCOCC4)c(=O)c3=O)CC2)c1 (centres undefined)
 : ., ., i, 0.93, -14, 98, -2.9
- C/C(=N\NC(=O)CSc1nnc(C)s1)c1ccc(Cl)cc1
 : ., ., i, 1.1, -1, 106, 0.6
- CCO[C@@H]1OC(C(=O)NCc2nc3ccccc3[nH]2)=C[C@H](c2cn(C(C)=O)c3ccccc23)[C@H]1CCCO
 : ., ., i, 1.1, 6, 84, .

# Bioassay records (PubChem)
